TRPML1 blocker: qHTS for Inhibitors of the Human Mucolipin Transient Receptor Potential 1 (TRPML1); TRPML1-inducible cells, Ca2+ dye fluorescence, FDSS; active compounds read low; inhibition of EC80 agonist-evoked calcium signal; activity change, negative = inhibition, % (test concentration not listed); actives 0.02% (n = 390,000); in the data active means activity change below about -50%; inconclusive means about -30% to -50%; inactive means above about -30%;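 note: stimulus is agonist 54-4 at its EC80 concentration; % is set by controls: 0 for no effect and ±100 for the full control effect; compound concentration not given in the record; the text of the record puts the active cut at -80%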
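TRPML1-DL cells, Tet-induced overnight (~16 h, 37 °C) at 1,500 cells/well, were loaded with Ca8 no-wash dye plus quencher for 45-90 min at room temperature. Compounds were pinned during FDSS kinetic reading; agonist 54-4 at EC80 (4 uM final) then added.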
TRPV1 PAM: HTS Assay for Compounds that Act as Potentiators of the Vanilloid Receptor 1; Transient receptor potential cation channel subfamily V member 1 (Homo sapiens), Q8NER1; potentiation, % at 8.33 µM; TRPV1-expressing cells, Fluo-8 calcium influx, capsaicin EC20 potentiation; host cell line not named in the record; control for the full effect not named in the record; actives 0.02% (n = 320,000); active means potentiation above 80%; inconclusive means 30% to 80%; inactive means below 30%; note: 0% is about no effect
Target sequence (Q8NER1 whole entry, looked up): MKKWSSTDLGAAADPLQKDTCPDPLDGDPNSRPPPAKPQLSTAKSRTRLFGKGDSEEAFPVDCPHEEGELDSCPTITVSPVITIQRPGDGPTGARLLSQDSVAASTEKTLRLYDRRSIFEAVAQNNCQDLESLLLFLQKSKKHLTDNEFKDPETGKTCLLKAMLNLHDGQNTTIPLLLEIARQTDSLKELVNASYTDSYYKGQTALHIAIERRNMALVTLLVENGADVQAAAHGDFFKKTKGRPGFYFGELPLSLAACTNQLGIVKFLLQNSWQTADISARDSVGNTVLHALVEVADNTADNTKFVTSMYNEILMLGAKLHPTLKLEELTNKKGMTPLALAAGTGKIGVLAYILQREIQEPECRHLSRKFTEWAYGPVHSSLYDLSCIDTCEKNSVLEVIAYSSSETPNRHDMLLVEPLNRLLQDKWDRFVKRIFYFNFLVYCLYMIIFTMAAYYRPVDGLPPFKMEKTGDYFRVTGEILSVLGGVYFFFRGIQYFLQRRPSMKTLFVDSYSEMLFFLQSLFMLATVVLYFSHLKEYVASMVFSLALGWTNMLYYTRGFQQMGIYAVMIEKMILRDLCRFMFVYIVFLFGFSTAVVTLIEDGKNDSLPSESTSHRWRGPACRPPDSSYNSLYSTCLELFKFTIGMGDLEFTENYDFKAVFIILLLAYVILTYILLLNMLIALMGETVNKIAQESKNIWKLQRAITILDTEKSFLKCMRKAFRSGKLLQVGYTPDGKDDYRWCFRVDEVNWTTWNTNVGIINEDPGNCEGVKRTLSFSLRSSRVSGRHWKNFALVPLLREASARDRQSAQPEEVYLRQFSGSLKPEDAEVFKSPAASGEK
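TRPV1-expressing cells were cultured overnight at 35.5C and loaded with Fluo-8 calcium dye for 40 to 90 min at room temperature. After a 10 s baseline, compound was added and calcium influx was read kinetically for 3 min (ex 480/em 520 nm).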
gsp antagonist: qHTS for Antagonists of gsp, the Etiologic Mutation Responsible for Fibrous Dysplasia/McCune-Albright Syndrome: qHTS; AID 624288, 2012; actives 0.4% (n = 340,000); gsp-mutant cells, cAMP HTRF, 30 min; control for the full effect not named in the record; Potency, µM (titrated, usually from 76.9 µM), for inactives: top-dose activity change, negative = inhibition, usual class: inhibitors; active = falling curve of any shape with a large fitted effect; inconclusive = falling curve, mostly with a smaller effect; inactive = flat or rising curve; cell line not stated here;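 note: intracellular cAMP measured with PDE inhibitor Ro 20-1724 present during compound exposure; potency is the fitted concentration of half-maximal effect; % is set by controls: 0 for no effect and ±100 for the full control effect; nearly all actives have a fitted effect of over 65% in size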
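Measurement of cellular cAMP by homogeneous time-resolved fluorescence following a 30 min compound exposure at 37C. The PDE inhibitor […] was present throughout; the assay buffer was DPBS with 0.05% BSA and 0.005% Tween 20.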
Sfp inh: qHTS Assay for Inhibitors of Bacillus subtilis Sfp phosphopantetheinyl transferase (PPTase). 4'-phosphopantetheinyl transferase ffp (Bacillus subtilis), Q9F4F7. Biochemical Sfp PPTase activity, qHTS. Potency, µM, inactives show max response, negative = inhibition, usual class: inhibitors. actives 3.5% (n = 310,000). AID 1490, 2009; active = well fitted inhibition curve with a large enough effect; inconclusive = small, poorly fitted or top-dose-only effect, or another doubt; inactive = no such curve, though single readings can be large or run the other way;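 note: the enzyme is Sfp with the accession as filed and its product quenches rhodamine fluorescence; potency is the fitted concentration of half-maximal effect; 0% = enzyme reaction without inhibitor and -100% = no enzyme wells; top concentration of the series not given in the record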
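Step 1, compound plus 15 nM Sfp-PPTase, 15 min, room temperature. Step 2, add rhodamine-CoA (5 uM) and BHQ-2-YbbR (12.5 uM). Step 3, read 525/598 nm fluorescence at 0 and 30 min.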
gsp agonist: qHTS for Agonist of gsp, the Etiologic Mutation Responsible for Fibrous Dysplasia/McCune-Albright Syndrome: qHTS; actives 0.13% (n = 340,000); Potency, µM (top dose mostly 76.9 µM), for the others: top-dose activation (cAMP increase), hits mostly activators; AID 624287, 2012; gsp mutant cells, cAMP HTRF, 30 min; control for the full effect not named in the record; active = well fitted activation curve with a large enough effect; inconclusive = small, poorly fitted or top-dose-only effect, or another doubt; inactive = no such curve, though single readings can be large or run the other way; cell line not stated here;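 note: phosphodiesterase inhibitor Ro 20-1724 added with compounds to block cAMP breakdown; potency is the fitted concentration of half-maximal effect; nearly all actives have a fitted effect of over 60% in size; about a fifth of the inactives were tested at one dose only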
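Cells stably selected in G418 were plated at 2000/well, grown 16-24 hr, then given compounds in DMSO with the PDE inhibitor […] (300 uM solution added) for 30 min at 37C; cAMP was read by HTRF.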
Menin-MLL FL inh: qHTS Assay for Inhibitors Targeting the Menin-MLL Interaction in MLL Related Leukemias: Competition With Fluorescein Labeled MLL-derived Peptide; Fluorescence polarization, fluorescein-MLL peptide displacement from menin; FP activity change, % at 61.4 µM; 290,000 tested, under 10 active; AID 1766, 2009; inconclusive = falling polarisation curve, or a change in total fluorescence; inactive = total fluorescence flat and polarisation flat or rising; no compound was filed as active; the % refers to the polarisation; negative = inhibition;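 note: % of control where 0% means no effect; inhibitors lower the polarisation; unlabelled MLL peptide was the positive control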
ClpP mod: qHTS Assay for Activators of ClpP; ATP-dependent Clp protease proteolytic subunit (Bacillus subtilis (strain 168)), P80244; purified B. subtilis ClpP, FRET peptide cleavage, 20 min; Potency, µM (titrated, usually from 57.5 µM), for the others: at the top dose activity change, negative = active; actives 1.9% (n = 340,000); AID 651965, 2013; active = well fitted falling curve with a large enough effect; inconclusive = small, poorly fitted or top-dose-only effect; inactive = no such curve, though single readings can be large or run the other way; note: potency is the fitted concentration of half-maximal effect; the source files actives as falling curves though it sought activators and does not explain the sign; nearly all actives have a fitted effect of over 65% in size; many hits overshoot -100%
Target sequence (P80244 whole entry, looked up): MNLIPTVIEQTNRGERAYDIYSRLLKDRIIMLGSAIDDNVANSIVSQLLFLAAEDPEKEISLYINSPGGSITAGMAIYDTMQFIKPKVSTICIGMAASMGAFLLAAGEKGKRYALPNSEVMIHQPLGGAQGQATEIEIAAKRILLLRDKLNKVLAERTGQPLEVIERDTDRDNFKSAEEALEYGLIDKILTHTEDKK
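FRET quenching reversal measured ClpP activation: 10 microg/mL B. subtilis ClpP at pH 8 with the FRET-FV decapeptide, read at 430 nm after 320 nm excitation. The 20-min minus 0-min signal was scaled between DMSO/no-enzyme wells and ADEP (5.8 microM final).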
* marks the source's active call; other numbers are inactive results; ? = inconclusive; . = no result given; & = joins results of further samples; [ ] = dose if it differs, or a comment.

smiles	TRPML1 blocker	TRPV1 PAM	gsp antagonist	Sfp inh	gsp agonist	Menin-MLL FL inh	ClpP mod
COc1ccc(NC(=O)COC(=O)C(NC(=O)c2ccc(C)cc2)C(C)C)cn1 (stereo not given)	12.6	.	-11.8%	.	-16.6%	.	-7.5%
COc1ccc(OC)c(-c2oc3ccccc3c(=O)c2O)c1	-14.5	-7.9	-7.6%	89.1µM*	0.7%	16.6	2.2%
COc1ccc(N/C(=C2\CCCC2=O)C2CCCCC2)cc1	-24.4	.	-0.7%	.	28.4%	.	1.3%
CC[C@@H](C)[C@@H](C(=O)N1CCNCC1)n1cc(CCC(=O)O)nn1	11.0	-5.1	-7.4%	16.5%	.	-5.8	-1.2%
CN(C)CCCN(C(=O)COc1ccccc1)c1nc2cc3c(cc2s1)OCO3	5.2	-4.7	4.9%	-17.7%	-7.4%[15.4 µM]	3.1	?
CC(=O)Nc1ccc(NS(=O)(=O)c2c(Cl)cccc2Cl)cc1	.	14.4	1.5%	79.4µM*	-2.4%	-2.4	-2.9%
COc1ccc(C(=O)NCC(=O)OCc2ccc(F)cc2Cl)cc1OC	9.9	4.7	-0.5%	4.6%	-24.2%	2.5	-5.2%
CCCNC(=O)Cn1cnc2sc(C(=O)NCCCN3CCOCC3)c(C)c2c1=O	3.4	-6.9	20.4%	10.2%	?	.	1.5%
COc1ccc2c(c1)Cc1sc(NC(C)=O)nc1-2	-11.4	-31.7	-15.1%	20µM*	-49.9%[inhibitor]	6.3	-1.0%
O=C(Nc1ccc(S(=O)(=O)Nc2cnc3ccccc3n2)cc1)c1ccccc1Br	2.9	11.5	-17.0%	14.4%	3.9%[15.4 µM]	-2.4	.
Cc1cc(C)c(NC(=O)COC(=O)CCn2c(C)csc2=O)c(C)c1	-1.0	8.4	0.3%	.	-45.8%[inhibitor]	.	2.8%
Cc1ccc(N(CCC#N)C(=O)COC(=O)c2ccccn2)cc1	12.0	9.4	10.5%	7.8%	11.3%	-2.6	-0.6%
O=C(N1CCCCC1)N1CCN(c2ccc(Cl)cc2)CC1	8.9	-20.3	10.0%	-1.8%	17.5%	3.2	1.6%
O=C(C[C@H]1C/C=C\C[C@H](NC(=O)OCC2c3ccccc3-c3ccccc32)C(=O)O[C@H](c2ccccc2)CNC1=O)N[C@H](CO)Cc1ccccc1	-1.6	.	3.4%	.	.	.	-3.2%
COCCN(C(=O)CCC(=O)Nc1cc(C)on1)C(C(=O)NC1CCCC1)c1ccccc1F (stereo not given)	4.3	1.7	-0.5%	7.5%	-3.0%	-5.3	.
CC(C)(CNC(=O)Cc1ccc(NS(=O)(=O)c2cccc(C(F)(F)F)c2)cc1)N1CCOCC1	-11.8	-9.7	8.0%	.	-0.2%[15.4 µM]	.	-0.6%
COc1ccccc1NC(=O)CSc1nnc(C2CCCCC2)n1-c1ccccc1	8.3	-4.7	?	15.7%	0.5%[15.4 µM]	1.7	.
CC(C)C(C)NC(=O)COc1ccc([N+](=O)[O-])cc1Cl (stereo not given)	-14.8	0.1	-11.2%	0.4%	5.2%	3.5	-1.6%
S=C(NCCc1ccccn1)NC1CCCCC1	2.2	2.6	2.7%	20.8%	-2.0%	-0.2	-3.3%
O=C1/C(=C/c2ccc(N3CCCC3)cc2)NC(=S)N1C1CC1	-8.5	-3.6	-27.1%	-4.0%	-31.8%[inhibitor]	?	0.5%
O=C(NCc1ccccc1)C1=C[C@@H](c2ccc(C(F)(F)F)cc2)C[C@@H](OCc2ccc(CO)cc2)O1	-0.5	-19.2	-22.1%	23.2%	.	8.1	-4.3%
CCC(C)(C)n1nnnc1C(c1ccc2ncccc2c1)N1CCN2CCCC2C1 (stereo not given)	6.4	-4.4	-3.7%	7.6%	4.5%	1.5	-0.6%
Cc1cc(OCc2cc(C(=O)N(C)Cc3ccccn3)no2)cc(C)c1Cl	-2.1	-8.5	-19.3%	-14.2%	16.0%[15.4 µM]	.	-4.2%
Cc1ccc(C)c(N2CCN(C(=O)c3cc(S(=O)(=O)N4CCCC4)cn3C)CC2)c1	1.5&9.2	0.2	-1.9%	9.7%	-36.1%[inhibitor]	-0.2	-1.4%&-1.2%
CCN1CCN(S(=O)(=O)c2ccc(Cl)c(C(=O)N(C)Cc3ccc(Cl)cc3Cl)c2)CC1	-9.7	-9.1	-2.7%	-4.7%	10.3%[15.4 µM]	.	68.8%

(further entries)
smiles	TRPML1 blocker	TRPV1 PAM	gsp antagonist	Sfp inh	gsp agonist	Menin-MLL FL inh	ClpP mod
COc1cc2c(cc1NC(=O)CSc1ccccn1)oc1ccccc12	-5.1	16.4	?	44.7µM*	-37.2%[inhibitor]	1.3	-13.9%
CCC(C)(C)C(=O)Nc1nnc(CCc2ccccc2)s1	5.0	-13.8	7.9%	-4.8%	-14.9%	0.2	1.3%
CCCOc1ccc(C(=O)CCC(=O)OCC(=O)Nc2cc(C)on2)cc1	.	-3.8	.	-1.2%	.	-2.7	.
COc1ccc(C2C(C#N)=C(N)Oc3cc(N)ccc32)cc1 (stereo not given)	3.9	-3.9	3.3%	15.3%	-47.0%[inhibitor]	3.7	0.0%
Cc1cc(NC(=O)CCC(=O)N(Cc2ccco2)C2(C(=O)NC3CCCC3)CCCCC2C)no1 (stereo not given)	-15.7	-2.7	-4.4%	5.2%	23.0%	.	.
Cc1ccc(S(=O)(=O)N2CCN(C(=O)CSc3ncn[nH]3)CC2)cc1	-0.7	-14.4	4.8%	.	?	.	1.0%
COC(=O)C1=C(C)N(C)C(=S)N(C)C1c1cccc(Br)c1 (stereo not given)	-9.6	-9.3	-3.4%	-5.7%	-5.5%[15.4 µM]	-3.7	.
COc1ccc(CCNC(=O)CN2CCN(S(=O)(=O)c3ccc(Cl)cc3)CC2)cc1OC	13.7	1.5	23.4%	-2.6%	-0.2%	6.1	0.7%
COc1ccc(CNc2oc(Cc3cccc4ccccc34)nc2C#N)cc1	12.6	-2.5	-9.2%	-5.3%	-2.8%	2.1	-3.4%
CCOc1cccc(CN2CCN(c3cccc(C(F)(F)F)c3)CC2)c1O	-4.6	29.4	-3.4%	?	8.4%	0.8	-4.1%
N#Cc1cc2ccccc2n2nnnc12	-0.1	22.2	2.2%	6.2%	0.0%[15.4 µM]	5.5	.
CCOc1cc(N2CCOCC2)c(OCC)cc1NC(=O)CN1CCCC(C)C1 (stereo not given)	9.3	-2.4	0.9%	-5.5%	15.0%	1.7	-10.8%
COc1ccc(NC(=O)c2csc3c2CCCCC3)c(OC)c1	?	-4.5	-10.2%	-10.5%	-36.6%[15.4 µM]	0.5	.
O=C(NCCN1CCCCC1)c1cc(COc2c(F)cccc2F)on1	11.7	1.2	9.7%	9.7%	-13.9%	-2.0	-3.1%
CN(C)S(=O)(=O)c1ccc(N2CCCC2)c(C(=O)Nc2nc3c(ccc4ccccc43)s2)c1	3.4	23.3	4.3%	-6.7%	0.0%	7.0	28.2µM*
COc1ccc(-n2nnnc2-c2ccc(S(C)(=O)=O)cc2Cl)cc1	-19.0	8.8	-2.2%	8.9%	-0.5%	-3.7	0.8%
COCc1cc(=O)[nH]c(Nc2nc(C)c3cc(OC)ccc3n2)n1	.	6.2	.	-3.0%	.	0.4	.
Cc1ccc(S(=O)(=O)/N=C2/NC(=O)/C(=C/c3ccccn3)S2)cc1	-13.8	7.6	-27.2%	12.6%	-55.3%[inhibitor]	6.6	.
C=CC[C@@H](CC(=O)OC(C)(C)C)C(=O)OC[C@H]1CCCN1C(=O)[C@@H](CC=C)CC(=O)N(CCO)Cc1ccccc1	31.3	.	-15.5%	.	.	.	-2.1%
COC(=O)c1cc(=O)n(-c2c(Cl)cc(C(F)(F)F)cc2Cl)[nH]1	0.7	4.7	7.2%	-14.8%	-1.5%[15.4 µM]	6.7	.
Cc1nnc(SCC(=O)c2c(N)n(C3CC3)c(=O)[nH]c2=O)n1-c1ccccc1	28.4	12.3	16.8%	.	-3.4%	.	0.2%
NC(=O)c1c(NC(=O)c2cc3ccccc3o2)sc2c1CCC2	-7.0	-14.3	-3.0%	-13.4%	-5.3%	10.6	-13.1%
CCC(Oc1ccccc1)C(=O)N1CCN(c2ccccn2)CC1 (stereo not given)	8.2	-17.1	6.0%	2.3%	34.6%	3.1	?
Cc1oc2c(CN3CCCC3)c(O)ccc2c(=O)c1-c1ccc(Cl)cc1	-14.1	12.3	-8.3%	12.9%	0.0%	0.5	21.2%
Cc1ccc(S(=O)(=O)NCC(=O)Nc2ccc3c(c2)OCO3)cc1	-4.8	-2.5	5.6%	10.5%	-23.3%	1.1	.

Remaining list, next part
smiles	TRPML1 blocker	TRPV1 PAM	gsp antagonist	Sfp inh	gsp agonist	Menin-MLL FL inh	ClpP mod
O=C1C=CC(=O)N1c1ccc(-c2nc3ccccc3o2)cc1	-1.3	.	.	.	22.4%	.	8.8%
COc1ccc(C2C(C#N)=C(C)NC3=C2C(=O)CC(C)(C)C3)c(OC)c1 (stereo not given)	-11.3	0.9	-1.0%	10.0%	-34.8%[inhibitor]	7.4	?
O=C(NCc1ccco1)/C(=C/c1ccc(Br)cc1)NC(=O)c1ccco1	-9.8	12.5	5.2%	20.9%	36.7%	0.6	-8.6%
CCOC(=O)CCc1c(C)c2ccc(OCc3nn[nH]n3)c(C)c2oc1=O	13.5	?	-12.0%	16.4%	-7.2%	-3.4	1.3%
Cc1ccccc1NC(=O)c1cccc(OCc2c(C)noc2C)c1	7.0	-8.0	-2.3%	23.3%	-14.1%	-1.1	1.1%
